# Bioassay records from PubChem.
# KCNQ2 pot: potentiators of rat KCNQ2 potassium channel. O88943. CHO-K1 KCNQ2, FluxOR thallium flux fluorescence; active compounds read high. B-score at 10 µM. actives 0.54% (n = 310,000). AID 2239;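 active = fluorescence ratio B-score at least 3 SD of library B-scores, with initial fluorescence B-score within 3 SD, cut at about 5.3 in these data; same plate scores as AID 2156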;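 also: B-score of peak minus minimum over baseline fluorescence ratio after K+ and Tl+ stimulus; positive B-score means potentiation of KCNQ2 with more thallium influx and brighter signal; only the inactives scoring about 0 or higher are listed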
# Target sequence (O88943 whole entry, looked up): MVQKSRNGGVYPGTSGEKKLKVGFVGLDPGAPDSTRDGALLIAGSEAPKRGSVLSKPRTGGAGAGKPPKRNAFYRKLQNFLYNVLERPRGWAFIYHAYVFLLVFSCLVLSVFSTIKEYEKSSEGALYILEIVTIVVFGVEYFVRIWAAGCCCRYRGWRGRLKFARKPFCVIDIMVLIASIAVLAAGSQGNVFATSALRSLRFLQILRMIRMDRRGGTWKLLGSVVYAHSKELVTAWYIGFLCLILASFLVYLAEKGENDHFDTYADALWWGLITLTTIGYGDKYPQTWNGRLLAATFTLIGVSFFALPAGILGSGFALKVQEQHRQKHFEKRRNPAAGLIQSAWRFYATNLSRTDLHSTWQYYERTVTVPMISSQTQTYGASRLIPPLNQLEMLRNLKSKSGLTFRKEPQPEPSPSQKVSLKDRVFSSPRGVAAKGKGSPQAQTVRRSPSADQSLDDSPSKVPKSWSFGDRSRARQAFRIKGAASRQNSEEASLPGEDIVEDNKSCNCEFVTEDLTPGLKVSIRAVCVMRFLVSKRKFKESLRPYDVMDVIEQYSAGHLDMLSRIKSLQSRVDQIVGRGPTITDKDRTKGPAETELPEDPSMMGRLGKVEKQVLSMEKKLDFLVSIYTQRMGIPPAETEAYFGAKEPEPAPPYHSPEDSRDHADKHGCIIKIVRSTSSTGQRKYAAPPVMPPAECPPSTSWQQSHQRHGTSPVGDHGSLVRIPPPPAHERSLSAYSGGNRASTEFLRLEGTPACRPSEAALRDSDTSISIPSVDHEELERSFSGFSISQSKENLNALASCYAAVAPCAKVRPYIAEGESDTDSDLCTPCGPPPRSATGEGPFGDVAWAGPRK
# KCNQ2 pot baseline: second read-out of KCNQ2 pot, no call of its own (marks repeat the call); B-score; compound at 10 µM; measured here: initial fluorescence intensity artifact check;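 brightness before thallium and not channel activity; 0 = typical well and far values either way flag optical interference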
# * hit, by the source's call. A portion of the library. The share of hits here may be higher or lower than overall.
SMILES,KCNQ2 pot,KCNQ2 pot baseline
C=CCOc1ccc(/C=C2\C(=N)N3N=C(S(=O)(=O)CC)SC3=NC2=O)cc1OC,0.09,-0.28
CC1=C(C(=O)OCc2ccccc2)C(c2ccc(Cl)cc2)NC(=O)N1CCCCCC(=O)O (stereo not given),0.71,-0.1
CCc1nnc(NC(=O)CSc2ccc(-c3ccc(-n4cccn4)cc3)nn2)s1,0.07,-0.56
CC(C(=O)Nc1ncc2c(n1)CC(C)(C)CC2=O)N1C(=O)c2ccccc2C1=O (stereo not given),0.46,-0.29
Nc1nc(NCc2ccco2)nc(N2CCCCCC2)c1[N+](=O)[O-],0.11,-1
Cc1ccc(Cl)cc1NC(=S)N1CCC(c2ccccc2)C1 (stereo not given),0.02,-0.01
OCc1nc2ccccc2n1CCOc1ccccc1,0.8,-1.5
COc1ccccc1CNC(=O)c1cc2sccc2n1C,0.02,0.16
Cc1c(-c2ccccc2)oc2c(C(=O)OCC(=O)Nc3cccc(F)c3)cccc2c1=O,0.71,-0.93
COC(=O)COc1ccc(S(=O)(=O)N2CCOCC2)cc1C,0.01,0.73
Cc1ccccc1NC1=NC(=S)N(CC(N)=O)C12CCOC(C)(C)C2 (stereo not given),0.02,-0.52
CN(C)c1cc[n+](CC(=O)Nc2ccccc2C(F)(F)F)cc1,0.57,1.1
COc1cccc(N2CCN(C(=O)CN(C)S(=O)(=O)c3ccc4c(c3)c(=O)n(C)c(=O)n4C)CC2)c1,1.9,-3.4
CCn1c(COc2ccc(=O)n(-c3ccccc3)n2)nnc1SCc1ccccc1C,0.05,-0.04
O=C(Nc1cccc(Cl)c1)Nc1ccnc(-c2cccnc2)n1,2.4,-0.42
O=C(OCC(=O)N1CCN(S(=O)(=O)c2ccc(Cl)cc2)CC1)c1cccc(OC(F)F)c1,11*,-0.05*
Cc1ccc(NC(=O)CSc2nnc(CNC(=O)c3ccccc3F)o2)cc1,1.3,1.6
O=C(O)c1ccccc1N1C(=O)C2C3CCC(C3)C2C1=O (stereo not given),0.57,0.43
CCOc1ccccc1NC(=O)CSc1nncc2ccccc12,0.61,0.62
CC(C)(C)SCCNC(=O)CSCc1ccc([N+](=O)[O-])cc1,0.98,-0.02
Cc1ccc(NC(=O)c2ocnc2C)cc1Cl,1.7,0.22
COc1ccc(CCNC(=O)Cc2ccsc2)cc1,0.45,0.05
COc1ccccc1NC(=O)CSc1nc2ncccc2[nH]1,1.4,0.37
Cn1cccc1/C=C1\SC(=Nc2ccc(O)cc2)NC1=O,0.19,0.07
O=C(NNc1c(Cl)cc(Cl)cc1Cl)c1n[nH]c(=O)c2ccccc12,0.57,-1.4
SMILES,KCNQ2 pot,KCNQ2 pot baseline
O=C1NC(=O)c2cc(Oc3ccc([N+](=O)[O-])cc3)ccc21,0.77,-0.14
COc1ccccc1C(=O)NNC(=O)c1ccc(NC(=O)CC(C)C)cc1,0.17,2
COc1ccccc1CN1CCN(Cc2nc(-c3cccs3)no2)CC1,0.03,0.12
COc1ccc(CCNC(=O)C2CCCN2C(=O)Nc2ccccc2)cc1OC (stereo not given),0.07,-0.66
N=C(N)N1CCc2ccccc21,1,-0.06
Cc1csc(NC(=O)CSc2nc3sc(C)c(C)c3c(=O)[nH]2)n1,0.1,0.3
O=C(c1ccc(CS(=O)(=O)c2ccc(Br)cc2)o1)N1CCOCC1,0.21,0.33
Cc1cc(C)n(-c2ccc(C(=O)OCC(=O)Nc3cc(Cl)ccc3[N+](=O)[O-])cc2)n1,1.6,-2.1
CC(=O)N1c2ccc(S(=O)(=O)N3CCC(C(=O)N4CCCC(C)C4)CC3)cc2CC1C (stereo not given),0.07,0.7
O=C(CCc1ccccc1)NNC(=S)NC(=O)c1ccc(Cl)cc1,0.47,-0.71
S=c1nc(-c2sccc2OCc2ccc(Cl)cc2Cl)[nH][nH]1,0.46,-0.11
O=C(Nc1cccc(-c2nnn(CC(=O)N3CCc4ccccc4C3)n2)c1)C1CCC1,0.16,-3.3
CN(C)c1cccc2c1c(NC(=O)Nc1ccc(F)cc1F)nn2C,1.2,-0.11
Cc1ccccc1N1C(=O)Cc2ccccc2C1=O,1.1,-0.58
CCOc1ccccc1NC(=O)Cn1nnc(C(=O)NCc2ccco2)c1N,1.4,0.96
Cn1cnnc1SCC(=O)c1cc2ccccc2oc1=O,1.6,-0.26
CC(C)(C)NC(=O)c1ccc(Cn2cc(C(F)(F)F)ccc2=O)cc1,1.4,0.75
O=C(C1=C(Nc2ccccc2)c2ccccc2S(=O)(=O)N1)c1ccccc1,0.03,0.91
S=C(NCc1ccc(Cl)c(Cl)c1)Nc1ccc2c(c1)OCO2,2.8,-1.6
CCOC(=O)C(Cc1c(F)cccc1Cl)c1ccno1 (stereo not given),0.78,-1.2
CCOC(=O)c1ccc2[nH]c3c(c2c1)CCCCC3=O,0.6,-0.52
COc1ccccc1NC(=O)N1CCCC1C(=O)NCC1CCCO1 (stereo not given),1.3,0.08
Cc1nc(SCC(=O)c2ccccc2)c([N+](=O)[O-])[nH]1,0.55,0.02
C=CCc1cccc(/C=N/n2c(C)nnc2C)c1O,0.83,1.7
CC1(C)Cc2cccc(OCC(=O)OCC(=O)Nc3ccccc3)c2O1,0.65,-0.44
SMILES,KCNQ2 pot,KCNQ2 pot baseline
Cc1cc(C(=O)CSc2cccc[n+]2[O-])c(C)n1-c1ccc(Br)cc1,0.32,0.61
CCn1c(SCC(=O)c2cc(C)n(-c3ccc(C(=O)OC)cc3)c2C)nnc1-c1cccnc1,0.37,0.11
Cc1ccc(C)c(NC(=S)NNC(=O)c2csc3c2CCCC3)c1,2.6,0.65
CCOCC(=O)Nc1ccc([N+](=O)[O-])cc1Cl,2,-2.3
O=C(COC(=O)c1ccc(CSc2ccc(Cl)cc2)cc1)Nc1ccccc1,1.2,0.14
CCOc1ccc(Br)cc1S(=O)(=O)N1CC(C)OC(C)C1 (stereo not given),0.95,-0.18
CC1CCCN(CCCNC(=O)c2ccc(N3CCCC3=O)cc2)C1 (stereo not given),0.96,0.55
COC(=O)c1ccccc1NC(=O)Cn1cnc2c1c(=O)n(C)c(=O)n2C,0.02,0.01
C=CCN(CC=C)C(=O)c1ccc(OC2CCN(S(=O)(=O)N(C)C)CC2)cc1,0.01,-1.5
COc1ccc(Cc2nc3ccc(C(=O)NCC4CCOCC4)cc3o2)cc1OC,0.03,0.62
O=C1CCCCN1CCC(=O)N1CCCC(N2CCN(c3cccc(Cl)c3)CC2)C1 (stereo not given),1.2,1.6
O=C(NCCCNC(=O)c1ccccn1)c1ccc(Cl)cc1,0.04,-0.19
COc1ccccc1-n1c(SC)nc2c(sc(=S)n2-c2ccccc2)c1=O,1,-2
N#Cc1ccc(NC(=O)CN2CCN(c3ccccn3)CC2)cc1,1.4,1.4
CCOc1ccccc1C(=O)Nc1ccc(C(=O)c2ccccc2)cc1,0.04,-1.4
Nc1nnc(SCc2ccc([N+](=O)[O-])cc2)s1,0.02,-0.72
COc1ccccc1OCCSc1nc2ccccc2n1CCC(=O)O,0.01,2.1
CCCn1nnnc1NCc1ccc(N(C)C)cc1,0.62,-1.2
O=C(CSCc1ccccc1)N1CCN(S(=O)(=O)c2cccc(F)c2)CC1,1.5,-1.9
OC(CN1CCNCC1)Cn1ccc2ccccc21 (stereo not given),0.92,0.37
Cc1csc(=O)n1CCC(=O)OCC(=O)N(CC(C)C)c1c(N)n(Cc2ccccc2)c(=O)[nH]c1=O,2,-0.12
COc1ccc(S(=O)(=O)N2CCCOC2CNC(=O)C(=O)NCc2ccco2)cc1C (stereo not given),1.6,0.87
O=C(NCCc1ccccn1)c1n[nH]c(=O)c2ccccc12,1.4,0.35
COc1c(Cl)cc(Cl)cc1/C=N/n1cnnc1,0.87,0.74
Cc1ccnc(NC(=O)CCC(=O)N(CC(=O)NCc2ccccc2)Cc2ccccc2)c1,0.62,0.2

# Reformatted with two lines to a compound: 3 of the compounds above
# Values in the order: KCNQ2 pot	KCNQ2 pot baseline
CCOc1ccccc1C(=O)Nc1ccc(C(=O)c2ccccc2)cc1
 : 0.04	-1.4
O=C(COC(=O)c1ccc(CSc2ccc(Cl)cc2)cc1)Nc1ccccc1
 : 1.2	0.14
O=C1CCCCN1CCC(=O)N1CCCC(N2CCN(c3cccc(Cl)c3)CC2)C1 (stereo not given)
 : 1.2	1.6

# 3 entries out of the list above, arranged by their value in KCNQ2 pot, falling.
Structure	KCNQ2 pot	KCNQ2 pot baseline
COc1cccc(N2CCN(C(=O)CN(C)S(=O)(=O)c3ccc4c(c3)c(=O)n(C)c(=O)n4C)CC2)c1	1.9	-3.4
C=CCc1cccc(/C=N/n2c(C)nnc2C)c1O	0.83	1.7
CCOC(=O)c1ccc2[nH]c3c(c2c1)CCCCC3=O	0.6	-0.52

# New compounds follow
SMILES,KCNQ2 pot,KCNQ2 pot baseline
C/C(=N\Nc1ccc(Cl)c(C(=O)O)c1)c1ccccn1,0.7,-1.6
NC(=O)c1ccc(Oc2ccc3ccc(=O)oc3c2)c([N+](=O)[O-])c1,0.95,0.01
CCC(C)(C)C1CCC(=NNC(=O)c2ccoc2C)CC1 (stereo not given),0.06,-0.49
O=C(CNC(=O)c1ccc(Cl)cc1Cl)Nc1ccc(F)cc1,0.66,-1.1
COc1ccc(-c2noc(CCC(=O)NCc3cccnc3)n2)cc1OC,1,-0.99
CCCn1c(CN(C)Cc2ccccc2)nc2c1c(=O)n(C)c(=O)n2C,3.3,-0.25
CC(C)c1nc(C(=O)N2CCc3c([nH]c4ccccc34)C2c2ccccn2)cs1 (stereo not given),0.06,0.37
CCCOc1cccc(-c2cc(-c3n[nH]c(=S)n3CC)c3ccccc3n2)c1,26*,0.15*
CCC1CCCCN1S(=O)(=O)c1ccc(S(=O)(=O)N2CCN(S(=O)(=O)CC)CC2)cc1 (stereo not given),0.07,0.47
N#Cc1c(NCc2ccccc2)ccnc1Cl,0.93,-0.03
O=C(NC(=O)c1ccccc1)OCC(F)(F)F,0.05,0.44
CN1CCN(C(=O)CCN2C(=O)/C(=C\c3ccc(Cl)cc3Cl)SC2=S)CC1,0.23,0.39
CC(c1ccccc1)N1C(=O)NC(NC(=O)C(C)(C)C)(C(F)(F)F)C1=O (stereo not given),0.08,2.7
O=C(Cn1c(=O)[nH]c2sc3c(c2c1=O)CCCC3)NCC1CCCO1 (stereo not given),0.59,-0.6
COC(=O)c1ccc2ccccc2n1,0.1,-3.7
O=C(N/N=C/c1ccc2c(c1)OCO2)c1cccs1,0.1,-0.18
COc1ccc(S(=O)(=O)NCC2CCCN(C(=O)c3cccnc3)C2)cc1 (stereo not given),2,0.02
Cc1nn(C)cc1S(=O)(=O)N1CCN(c2ccccc2F)CC1,0.22,-0.3
CCOC(=O)c1c(C)nc(-c2ccccc2)nc1NC(=O)C(C)C,0.88,0.01
COc1ccc(-c2noc(CCC(=O)NC3CCCCCC3)n2)cc1,1.9,-0.11
O=C(N/N=C/c1ccc2c(c1)OCO2)c1ccc(Cn2cc([N+](=O)[O-])cn2)o1,0.38,-0.34
O=C(N/N=C/c1ccsc1)c1cc(O)cc(O)c1,1.2,1.4
COc1ccc(OC)c(NC(=O)C(=O)N/N=C/c2ccccc2[N+](=O)[O-])c1,0.36,-0.52
CC1=C(C(=O)OCc2ccccc2)C(c2cccnc2)n2nnnc2N1 (stereo not given),0.16,-1.5
O=C(CSCc1ccc(Cl)cc1)Nc1cccc(C(=O)O)c1,0.31,-2.3
SMILES,KCNQ2 pot,KCNQ2 pot baseline
CCCOC(=O)c1ccc(Oc2cn[nH]c2-c2ccc(OCC)cc2O)cc1,0.47,-1
CCCSC1=C(C#N)C(c2ccc(Cl)cc2Cl)CC(=O)N1 (stereo not given),1.3,-0.17
COc1ccc(OCc2nc(N)nc(Nc3ccccc3OC)n2)cc1,1,-0.68
COc1ccccc1NC(=S)NC(NC(=O)c1ccco1)C(Cl)(Cl)Cl (stereo not given),0.53,0.38
O=C(CSc1nc2ccccc2[nH]1)NCc1ccccc1,0.53,1.2
Cc1ccc2cc(C)c(SCC(=O)NCC3CCCO3)nc2c1 (stereo not given),1.7,0.21
CCNC(=S)N/N=C/c1cccc(C)c1,1,-0.58
O=C(O)CN1C(=O)c2ccc(C(=O)c3ccccc3)cc2C1=O,1.4,-0.46
O=C1CS/C(=N/N=C\c2ccn[nH]2)N1,0.01,-0.02
COC(=O)CC1SC(=O)NC1=Nc1ccc(OC)cc1 (stereo not given),0.68,0.25
O=C(CCc1nc(-c2ccccc2)no1)Nc1cccnc1,0.83,1
CCn1c(SCC(=O)Nc2sc(C)c(C)c2C#N)nnc1C(C)C,0.04,-0.44
CCOC(=O)c1ccc(NC(=O)Cn2c(-c3nonc3N)nc3ccccc32)cc1,0.34,-2.2
O=c1ccn(CCOc2ccc(Cl)cc2)c(=O)[nH]1,0.67,-1.4
COc1ccccc1CNC(=O)c1oc2ccc(S(=O)(=O)N3CCCC3)cc2c1C,3.1,0.18
CC1(c2nnc(-c3ccncc3)o2)CC(c2ccccc2)=NO1 (stereo not given),0.11,0.2
COc1ccc(CN2CCC(CO)(CCOc3ccccc3)CC2)cc1C,1.1,-2
CCN1CCN(CC(O)COc2ccc3c(c2)CCC3)CC1 (stereo not given),0.87,0.01
CC(OC(=O)Nc1cccc(Cl)c1)C(=O)O (stereo not given),0.16,0.86
O=C(CSc1ccccc1)Nc1ccc2c(c1)C(=O)NC2=O,1,-0.73
O=C(NCC1CCCCC1)c1cccnc1Cl,0.48,-1.6

# Complete entries as entered above. Order of values: KCNQ2 pot	KCNQ2 pot baseline
# COc1ccccc1C(=O)NNC(=O)c1ccc(NC(=O)CC(C)C)cc1 is listed as 0.17	2
# O=C(CSCc1ccc(Cl)cc1)Nc1cccc(C(=O)O)c1 is listed as 0.31	-2.3

# 2 records drawn at random from those above, as already listed:
SMILES,KCNQ2 pot,KCNQ2 pot baseline
CCCSC1=C(C#N)C(c2ccc(Cl)cc2Cl)CC(=O)N1 (stereo not given),1.3,-0.17
O=C(CSc1nc2ccccc2[nH]1)NCc1ccccc1,0.53,1.2
